Assay outcomes (PubChem)
RN4220 kill – S. aureus RN4220 growth inhibition; OD600, 16 h; inhibition, % (test concentration not listed); 0.33% of 330,000 active; AID 1259311;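 active means z-score of -3 or lower and OD600 up to 0.18 on both plates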;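 further: plate controls were untreated cells for no effect and reference antibiotic for full effect; stock transfer was 100 nL into about 80 µL; one replicate is shown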
PrP UTR inh – inhibition of PrP 5' UTR reporter expression. 0.35% of 340,000 active. inhibition, % (no concentration beside the values). cell-based PrP 5' UTR mRNA reporter, plate reader;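 active means every replicate at 50% or more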;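 further: 0 = median of the neutral control wells; tested in H4 reporter cells; numbers are from one replicate; inactives centre near -14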
Autofluor counter – counter-screen for toxin protease inhibitors: compound fluorescence; 3.1% of 360,000 active; compound autofluorescence counterscreen, microsphere flow cytometry; active compounds read high; AID 624483; fluorescence intensity (concentration not given with the values);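 active means at least 3 SD above the mean of all compounds, about 16000 in these data; inconclusive means too few beads counted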;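 further: 100 nL of 1 mM stock went into each well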
BJeLR viability – BJeLR cell viability loss. BJeLR (HRASV12) viability, CellTiter-Glo ATP luminescence, 48 h; reference of the scale not given here. inhibition, % (no concentration beside the values). 0.17% of 300,000 active. AID 1554;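 active means replicate mean above 50%; inconclusive means above 50% but judged a plate artefact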;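 further: 50 nL library stock added to about 25 µL; numbers are from one replicate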
Mtb hypoxia inh – Mtb hypoxia fluorescent reporter inhibition. M. tuberculosis hypoxia-regulated fluorescent reporter, fluorescence. fluorescence inhibition, % (no concentration beside the values). 0.1% of 300,000 active. AID 1159583;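 active means 35 to 45% if threefold the growth effect, above 45% if 1.5-fold the growth effect; inactive means the rest, general growth blockers included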;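 further: wells of about 50 µL received 100 nL stock; 0% = vehicle wells and 100% = reference inhibitor wells; whole bacteria with a GFP reporter of the hypoxia response; strong numbers were not always called active; many hits fall short of the cut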
ugtP null kill – kills S. aureus RN4220 lacking UgtP; S. aureus RN4220 ugtP deletion, OD600 growth, 16 h; some inactives read as strong as hits; growth inhibition, % (test concentration not listed); 0.54% of 330,000 active; AID 1259309;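 active means z-score under -3 and OD600 up to 0.15 on both plates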;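 further: plate controls were untreated wells for no effect and antibiotic for full effect; wells of about 80 µL received 100 nL stock; the first replicate is given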
Mtb hypoxia inh growth – also measured in Mtb hypoxia inh; calls as there; growth inhibition, %; measured here: M. tuberculosis growth (absorbance);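 0% = vehicle and 100% = reference antibiotic; read after six days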
Numbers without * were called inactive; ? = inconclusive; · = no result given. Rows were taken by chance; overall some 4% were active at least once.

mol | RN4220 kill | PrP UTR inh | Autofluor counter | BJeLR viability | Mtb hypoxia inh | Mtb hypoxia inh growth | ugtP null kill
CCOc1ccc(S(=O)(=O)Nc2ccc3c(c2)OCO3)c2cccnc12 | -8.9 | -20 | 2254 | -5 | · | · | 5
Cc1ccccc1C(=O)c1cccn1CC(=O)NCc1cccc(Cl)c1 | 3.0 | -11 | 5972 | -6 | 10 | 7 | 15
CN(c1ccccc1)c1nc(N)c([N+](=O)[O-])c(N2CCCCC2)n1 | 0.2 | -30 | 6082 | -6 | 3 | -5 | 0
O=C(COc1ccc([N+](=O)[O-])cc1)NCCC1=CCCCC1 | 4.2 | -48 | 11473 | -6 | 10 | 6 | 5
CCCS(=O)(=O)N1CCN(S(=O)(=O)c2ccccc2[N+](=O)[O-])CC1 | 5.1 | · | · | 5 | 0 | 2 | 4
O=C(CSc1nnc(CNC(=O)c2ccco2)o1)c1ccccc1 | -0.6 | -13 | 4068 | -2 | · | · | 5
CC(N)C12CC3CC(CC(O)(C3)C1)C2 (centres undefined) | 0.0 | -29 | 6938 | -6 | 0 | -1 | 6
CCN(CC)c1nc2cc(C)ccc2cc1/C=C(\C#N)C(N)=O | 1.7 | 1 | 2744 | -4 | 4 | 7 | 24
Cc1cnc(NC(=O)Cc2ccc(C)c(C)c2)s1 | -10 | -15 | 5872 | -4 | 1 | 1 | 4
NC(=O)[C@H](Cc1cc2ccccc2s1)NC(=O)[C@@H]1CC2(CC(c3cccc(NC(=O)[C@@H]4CCC(=O)N4)c3)=NO2)CN1C(=O)/C=C/Sc1ccccc1 (some centres undefined) | · | -24 | 4302 | -6 | · | · | ·
O=C(NCc1nnnn1-c1ccc(F)cc1)c1ccc([N+](=O)[O-])o1 | 41 | -20 | ? | -3 | 23 | 32 | 40
Cc1ccccc1Nc1ccc(S(=O)(=O)N2CCOCC2)cc1[N+](=O)[O-] | 3.8 | 3 | 2328 | -17 | 1 | 3 | 4
COc1ccc(CNC(=O)/C=C/c2ccc3[nH]cc(CCN(C)C)c3c2)cc1 | · | -13 | 6005 | 5 | · | · | ·
O=C(NN=Cc1cccc(O)c1)c1ccc2c(c1)OCCO2 | -0.4 | · | · | · | 9 | -1 | 2
Cc1nc2ccc(C(=O)O)cc2nc1C | 7.1 | -27 | 2239 | 5 | · | · | 1
CCCCCn1c(NC2CCCCC2)nc2c1c(=O)[nH]c(=O)n2C | 1.5 | -18 | 5926 | 9 | 1 | 0 | 8
O=S1(=O)CCOCC(CC2CCCCC2)N1Cc1cccc(F)c1 (centres undefined) | 14 | · | · | · | 21 | 7 | 23
CN(C)S(=O)(=O)c1cccc(NC(=O)CSc2nc3ccccc3n2-c2ccccc2)c1 | 0.5 | -17 | 2160 | -2 | 5 | -2 | 2
COc1ccc(-c2cc(C(F)(F)F)nc(SCC(=O)N(C)Cc3cnn(C)c3C)n2)cc1OC | -0.2 | 2 | 2151 | 6 | 4 | 11 | -4
COc1cc(-c2c(-c3cccc(C)c3)oc3ccccc23)cc(OC)c1OC | -3.1 | -9 | 3957 | -6 | 8 | 3 | 9
COC(=O)c1ccc(C2/C(=C(/O)c3ccc(OC)cc3)C(=O)C(=O)N2c2cc(C)on2)cc1 (centres undefined) | 1.6 | -19 | 4573 | -2 | · | · | 1
CC(C)(C)c1cc(S(=O)(=O)CCc2ccncc2)cc(C(C)(C)C)c1F | -0.1 | -13 | 4499 | 3 | -5 | 10 | 0
CC1CN(C(C)CO)C(=O)c2cccc(NC(=O)c3cnccn3)c2OC1CN(C)C(=O)Nc1ccc2c(c1)OCO2 (centres undefined) | 6.5 | · | · | · | 5 | 6 | 6
CN1CCN(C(=O)Cn2ncc3c([nH]c4ccccc43)c2=O)CC1 | 4.1 | -3 | 4577 | -13 | 5 | 0 | 11
COc1ccccc1-n1c(C)c2c(OC)cccc(=O)c2c1C | 12 | -19 | 10159 | -5 | 4 | 6 | 0
O=C1N(Cc2cccc(Cl)c2)C[C@@H]2C[C@@H](c3cccn3-c3cccnc3)N3CCC[C@@]123 | 3.7 | -8 | 6338 | -1 | 4 | 9 | 8
NC(=O)COC(=O)/C=C/c1cccc(Br)c1 | 4.0 | -25 | 3591 | 10 | 6 | 6 | -2
Cc1ccc(CNC(=O)CSc2ccc(-c3ccccn3)nn2)cc1 | 3.9 | 4 | 5959 | 9 | 12 | -1 | 15
CCn1nc(C)c(CN2CCC(n3nccc3NC(=O)CCCc3ccccc3)CC2)c1C | -3.6 | 5 | 4379 | 5 | 7 | 4 | -3
CN1CCC(O)(c2ccccc2)C2CCCC21 (centres undefined) | 1.6 | -4 | 11716 | -10 | 5 | 9 | 0
CCOc1cc(C(=O)NC)cc(Br)c1OCc1ccccc1 | 45 | -10 | 4931 | 7 | 10 | 7 | 0
CN(C)Cc1c(C(=O)NN=Cc2ccoc2)nnn1-c1nonc1N | 2.3 | · | · | · | 14 | 1 | -2

Pulled one by one from the entries so far, 7 records:
mol | RN4220 kill | PrP UTR inh | Autofluor counter | BJeLR viability | Mtb hypoxia inh | Mtb hypoxia inh growth | ugtP null kill
COc1ccccc1-n1c(C)c2c(OC)cccc(=O)c2c1C | 12 | -19 | 10159 | -5 | 4 | 6 | 0
O=C1N(Cc2cccc(Cl)c2)C[C@@H]2C[C@@H](c3cccn3-c3cccnc3)N3CCC[C@@]123 | 3.7 | -8 | 6338 | -1 | 4 | 9 | 8
NC(=O)COC(=O)/C=C/c1cccc(Br)c1 | 4.0 | -25 | 3591 | 10 | 6 | 6 | -2
Cc1ccc(CNC(=O)CSc2ccc(-c3ccccn3)nn2)cc1 | 3.9 | 4 | 5959 | 9 | 12 | -1 | 15
CCOc1cc(C(=O)NC)cc(Br)c1OCc1ccccc1 | 45 | -10 | 4931 | 7 | 10 | 7 | 0
CCn1nc(C)c(CN2CCC(n3nccc3NC(=O)CCCc3ccccc3)CC2)c1C | -3.6 | 5 | 4379 | 5 | 7 | 4 | -3
CN1CCC(O)(c2ccccc2)C2CCCC21 (centres undefined) | 1.6 | -4 | 11716 | -10 | 5 | 9 | 0

(next part)
mol | RN4220 kill | PrP UTR inh | Autofluor counter | BJeLR viability | Mtb hypoxia inh | Mtb hypoxia inh growth | ugtP null kill
CN1CCN(c2cc3c(cc2F)c(=O)c(C(=O)O)cn3CCF)CC1 | · | 10 | 6039 | -7 | · | · | ·
Fc1cccc(NC(=S)Nc2cccc3ccccc23)c1 | -3.8 | -10 | 6434 | 4 | 0 | -3 | -6
COc1ccc(-c2nc(CSCC(=O)NCCCN3CCCC3=O)c(C)o2)cc1 | 2.0 | -1 | 4813 | 5 | 11 | 3 | 2
Cc1c(NS(=O)(=O)c2cc(C(=O)NCc3ccco3)cc(Cl)c2Cl)c(=O)n(-c2ccccc2)n1C | -3.7 | -9 | ? | -4 | -7 | 0 | -4
O=C(C1CCN(c2ccc(N3CCOCC3)nn2)CC1)N1CCc2ccccc2C1 | 2.0 | · | 11832 | -6 | 3 | 10 | 10
O=C1c2ccccc2C(=O)N1c1nc(-c2cccs2)cs1 | 4.4 | -13 | 4266 | 7 | · | · | 5
N/C(=N\OC(=O)N1c2ccccc2Sc2ccccc21)c1ccc(Br)cc1 | -5.8 | -27 | 1986 | -2 | -1 | -12 | -11
O=C(CCSc1ccccc1)Nc1ccc(S(=O)(=O)N2CCOCC2)cc1 | -2.4 | -22 | 4709 | 2 | · | · | -1
CC(C)Sc1nc2c(cnn2-c2ccc(F)cc2)c(=O)[nH]1 | 5.4 | 11 | 6038 | -9 | 9 | 5 | -2
Cc1nc(CCNC(=O)CC2C(=O)NCCN2Cc2ccc(F)cc2)sc1C (centres undefined) | 4.6 | -48 | 4162 | -6 | 2 | -2 | 9
COC(=O)Cc1c(C)nc(SCc2ccccc2)[nH]c1=O | 0.9 | -29 | 3648 | 8 | 12 | -4 | 1
O=C(CSc1nc2cc(Cl)c(Cl)cc2[nH]1)c1ccc2c(c1)OCO2 | 0.0 | -43 | 5791 | -4 | 13 | 5 | -24
O=C(c1cc2ccccc2o1)N(C1CC1)C1(C(=O)Nc2ccccc2)CCCC1 | -2.9 | -16 | 4921 | 8 | -8 | 0 | -6
COc1ccc(C=NNC(=O)c2nn(-c3ccc(Cl)cc3)c(=O)c3c(N)scc23)cc1 | 16 | · | · | · | -5 | 10 | -20
Cc1ccc(OC(=O)c2cc3ccccc3o2)cc1 | 3.0 | 1 | 2846 | 6 | · | · | 98*
COc1cc(-n2c(=O)c3ccccc3n(CC(=O)c3ccccc3)c2=O)cc(OC)c1OC | 3.3 | -5 | 6270 | -3 | 9 | 12 | 7
CC(C)c1ccc(OC(=O)c2cccc(S(=O)(=O)N3CCN(C)CC3)c2)cc1 | 1.9 | -5 | 6203 | 4 | -1 | -5 | 6
COc1cc(OC)cc(C(=O)N[C@H](C(=O)Nc2nnc(C3CC3)s2)C(C)C)c1 | -1.7 | -23 | 3910 | 3 | 12 | 6 | 2
COc1ccc(C(=O)Nc2c3c(nn2-c2ccc(Cl)cc2)CS(=O)(=O)C3)cc1 | 1.6 | 13 | 4093 | -6 | 8 | 0 | 8
COc1ccc(-n2c(=S)[nH]c3cc(C(=O)N4CCN(c5ccccc5)CC4)ccc3c2=O)c(OC)c1 | -4.2 | 0 | 5769 | -3 | -12 | 2 | 7
CCOc1c(S(=O)(=O)NC2CC(C)(C)NC(C)(C)C2)ccc(Cl)c1Cl | 9.4 | -16 | 2672 | 2 | 13 | 15 | 0
CCOC(=O)COc1ccc(N)cc1CC(NC(C)=O)(C(=O)OCC)C(=O)OCC | 3.9 | -14 | 5827 | -4 | 4 | 1 | 6
Cc1cccc(Nc2nc(NCCCN3CCOCC3)nc(N)c2[N+](=O)[O-])c1 | -0.3 | -14 | 9925 | -4 | -3 | 1 | -5
O=S(=O)(c1ccc(F)cc1)N1CCN(C(=S)NCCc2ccccc2)CC1 | 5.0 | -20 | 4780 | 2 | 6 | 7 | 4
O=C(COC(=O)Cc1ccc(Cl)c(Cl)c1)Nc1ccc2[nH]c(=O)[nH]c2c1 | 1.9 | -13 | 5949 | -5 | 9 | 0 | 3
NC(=O)c1ccc(C2SCC(=O)N2CCc2ccccc2)cc1 (centres undefined) | 5.4 | -12 | 4197 | · | 12 | 3 | 7
Cc1cc(C)cc(-n2nnc(C(=O)NCc3ccc(Cl)cc3)c2N)c1 | -1.5 | -5 | 4257 | -11 | 0 | -3 | -2
COC(=O)C1=C(C(=O)OC)[C@@H]2N(C)c3ccc(OC)cc3[C@@]23C[C@@H](C(=O)OC)N(C(=O)CC(C)C)C3=N1 | · | -5 | 2996 | -9 | · | · | ·
Cc1cccc(OCC(=O)Nc2ccc3c(c2)nc(CCN2CCN(c4ccccn4)CC2)n3C)c1 | 6.6 | -19 | 5590 | 0 | 8 | 1 | 10
CCCCn1c(=O)[nH]c(=O)c2c1nc(-c1ccccc1F)n2Cc1ccccc1OC | -5.7 | 49 | 3891 | -9 | 4 | 2 | -13
Cc1cc(C)nc(SC2CC(=O)N(c3ccc(Cl)cc3)C2=O)n1 (centres undefined) | · | -19 | 3541 | -5 | · | · | ·
COc1ccc(CC(=O)Nc2ccc(N3CCCCC3)cc2)cc1 | 9.7 | -11 | 4305 | -11 | -4 | 5 | 3

An excerpt of these results, field by field:
CCOc1cc(C(=O)NC)cc(Br)c1OCc1ccccc1
- RN4220 kill = 45
- PrP UTR inh = -10
- Autofluor counter = 4931
- BJeLR viability = 7
- Mtb hypoxia inh = 10
- Mtb hypoxia inh growth = 7
- ugtP null kill = 0
CN(C)Cc1c(C(=O)NN=Cc2ccoc2)nnn1-c1nonc1N
- RN4220 kill = 2.3
- PrP UTR inh = ·
- Autofluor counter = ·
- BJeLR viability = ·
- Mtb hypoxia inh = 14
- Mtb hypoxia inh growth = 1
- ugtP null kill = -2

(cont.)
mol | RN4220 kill | PrP UTR inh | Autofluor counter | BJeLR viability | Mtb hypoxia inh | Mtb hypoxia inh growth | ugtP null kill
CC(=O)N1CCN(C(=O)c2ccc(S(=O)(=O)Nc3ccccc3F)cc2)CC1 | 2.4 | -17 | · | · | 7 | 4 | 2
CC(C)c1cccc(C(C)C)c1OC(=O)NC(=O)c1c(F)cccc1F | 4.5 | -8 | 5639 | -10 | 4 | 4 | -1
Cc1ccc(SC(C)C(=O)Nc2ccccc2-c2ccccc2)cc1 (centres undefined) | -6.4 | -9 | 9728 | 3 | 0 | -4 | 13
COc1cc(NC(=O)COc2ccc(Br)cc2)ccc1NC(=O)C(C)C | 8.2 | -45 | 3118 | 3 | 3 | -4 | 6
